Screens: PubChem BioAssay, National Center for Advancing Translational Sciences (NCATS)
Rango complex inh = prevents formation of the Rango-importin beta complex | Q14974 | Rango CFP/YFP FRET sensor + importin beta, 45 min | Potency, µM (doses to about 92.2 µM), for the others: at the top dose inhibition of complex formation | actives 0.031% (n = 340,000) | AID 540263; active = rising FRET ratio curve, often small or poorly fitted; inconclusive = mostly compound fluorescence or quenching in the first reads; inactive = flat curves in all reads;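 further: potency means the concentration at half of the fitted maximal effect; 0% = DMSO wells and 100% = buffer wells lacking importin beta; nearly all actives have a fitted effect of over 15% in size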
Target sequence (Q14974 whole entry, looked up): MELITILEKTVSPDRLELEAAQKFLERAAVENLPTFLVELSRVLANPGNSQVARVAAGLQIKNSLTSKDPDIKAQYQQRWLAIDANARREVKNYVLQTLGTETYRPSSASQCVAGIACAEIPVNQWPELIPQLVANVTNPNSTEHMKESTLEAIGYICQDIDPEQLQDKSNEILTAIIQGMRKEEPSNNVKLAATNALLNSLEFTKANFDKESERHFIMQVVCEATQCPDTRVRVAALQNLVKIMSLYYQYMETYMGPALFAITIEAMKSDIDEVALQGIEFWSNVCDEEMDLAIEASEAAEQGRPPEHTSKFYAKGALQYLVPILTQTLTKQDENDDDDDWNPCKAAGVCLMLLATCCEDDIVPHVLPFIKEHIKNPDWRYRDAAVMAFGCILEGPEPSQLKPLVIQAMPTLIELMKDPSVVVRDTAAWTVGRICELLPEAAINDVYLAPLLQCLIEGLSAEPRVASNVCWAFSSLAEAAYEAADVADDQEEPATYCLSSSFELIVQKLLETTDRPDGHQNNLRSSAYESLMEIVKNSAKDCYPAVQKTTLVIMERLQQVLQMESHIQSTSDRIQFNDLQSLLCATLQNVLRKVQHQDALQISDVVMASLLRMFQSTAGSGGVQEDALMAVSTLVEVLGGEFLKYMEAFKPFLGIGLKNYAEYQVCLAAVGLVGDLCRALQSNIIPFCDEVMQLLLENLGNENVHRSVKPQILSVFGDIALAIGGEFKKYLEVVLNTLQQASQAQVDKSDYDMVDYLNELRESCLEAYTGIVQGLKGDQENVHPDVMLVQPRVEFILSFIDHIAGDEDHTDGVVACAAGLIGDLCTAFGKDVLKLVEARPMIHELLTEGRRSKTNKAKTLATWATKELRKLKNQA
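Inhibition scored from the CFP 486 nm/YFP 530 nm FRET ratio 45 min after adding 0.125 microM importin beta to 50 nM Rango biosensor preincubated 5 min with compound (room temperature, PBS with DTT, Tween-20, BSA). No-importin wells as positive control.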
Rango dissoc inh = inhibition of RanGTP-driven Rango-importin beta dissociation; AID 540253; O95149+P62826; actives 0.071% (n = 340,000); Potency, µM (doses to about 46.1 µM), without a hit: at the top dose activity change, negative = inhibition; Biochemical FRET Rango-importin beta, RanGTP-induced dissociation; active means falling FRET ratio curve, often poorly fitted, with flat reads before Ran was added; inconclusive means other falling curves, or compound fluorescence or quenching; inactive means flat or rising ratio curve;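 further: potency means the concentration at half of the fitted maximal effect; % of control where 0% means no effect; nearly all actives have a fitted effect of over 45% in size; -100% = wells without RanGTP and RCC1; the record marks most hits as doubtful in a second field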
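Recombinant Rango FRET biosensor (EYFP–snurportin 1 IBB–cerulean CFP10) at 0.1 uM premixed with 0.25 uM importin beta in PBS, 1 mM DTT, 0.02% Tween-20, 0.1% BSA. Compound added 5 min; RanGTP-RCC1 (0.6 uM Ran, 2 mM GTP, 0.2 uM RCC1) then triggers release, read at 45 min.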
miR-21 FLuc = raises the signal of a miR-21 reporter; HeLa miR-21 FLuc reporter, luciferase, 48 h; Potency, µM (titrated, usually from 38.3 µM), inactives show at the top dose reporter change, positive = more light; 340,000 tested, under 10 active; AID 2288; active = well fitted rising curve with a large enough effect; inconclusive = small, poorly fitted or top-dose-only effect; inactive = no such curve, though single readings can be large or run the other way;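 further: % of control where 0% means no effect; miR-21 action dims this reporter so a rising signal means less miR-21 action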
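HeLa cells endogenously expressing miR-21, stably carrying CMV-driven firefly luciferase with a downstream miR-21 binding site, 2000 cells/well. Titrations up to approximately 40 uM, 48 hours; luciferase luminescence read.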
GLA inh pH 4.5 = blocks human alpha-galactosidase A at pH 4.5 | purified enzyme, 4-MU-alpha-Gal fluorescence, pH 4.5 | activity change, negative = inhibition, % at 105 µM | 230,000 tested, under 10 active | P06280; inconclusive = small, poorly fitted or top-dose-only inhibition, or a rising curve; inactive = flat fitted curve, though single readings scatter; no compound was filed as active;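 further: 0% = full activity with enzyme and -100% = basal without enzyme; dose as in the result columns while the protocol names 77 µM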
Starred values were filed as active, the others as inactive; ? = inconclusive; . = not tested or not shown; & = joins results of further samples. Only part of the results is shown (hit frequency here may not be typical).

Every second line gives: Rango complex inh, miR-21 FLuc, GLA inh pH 4.5, Rango dissoc inh
O=C(NC1CCN(C(=O)Nc2ccccc2Cl)CC1)c1ccccc1
→ -6.2%, 4%, 0, -21%
COc1ccccc1N1CCN(S(=O)(=O)c2cn(C)nc2C)CC1
→ ?, 0%, ., ?
CC(C)(C)SCCNC(=O)CN(c1ccc(F)c(Cl)c1)S(C)(=O)=O
→ 2.4%, -8%, 4, -14%
CN(C)c1cc[n+](CC(=O)N2CCCc3ccccc32)cc1
→ -0.4%, 3%, -8, -10%
COC(=O)c1cc(NC(C)=O)ccc1N1CCOCC1
→ -1.4%, 1%, -6, 1%
OC1COC(c2ccccc2)OC1C(O)C1OC(c2ccccc2)OCC1O (stereo not given)
→ 2.1%, ., ., 7%
Cc1ccc(OCC(O)CN2CCN(CC(O)COc3ccc(C)cc3)CC2)cc1 (stereo not given)
→ 0.3%, -4%, 1, 18%
Cc1ccc(NC2=C(Cl)C(=O)OC2OC(=O)c2ccccc2)c(C)c1 (stereo not given)
→ -0.2%, 0%, -5, 5%
O=C(CN(c1ccccc1)S(=O)(=O)c1ccccc1)Nc1ccccc1C(=O)NCc1ccco1
→ 8.8%, 8%, -2, ?
COc1ccc(N2CCN(c3nc(Nc4ccc(F)cc4)nc(OC)n3)CC2)cc1
→ ., 2%, 2, .
Cc1ccc(C(=O)OCC(=O)N(CC(C)C)c2c(N)n(Cc3ccccc3)c(=O)[nH]c2=O)o1
→ 2.2%, ., ., -2%
COc1ccc(C2(O)CCN(C(=O)Cc3cccnc3)CC2)cc1
→ -1.1%, 1%, -2, 3%
CC1CCCCN1CC(=O)NC(=O)NCc1ccccc1 (stereo not given)
→ -0.9%, -1%, 2, 2%
COc1ccc(CCNC(=O)CN2C(=O)NC(C)(c3ccc([N+](=O)[O-])cc3)C2=O)cc1 (stereo not given)
→ -1.1%, 12%, 12, 15%
O=C(O)c1cc(Cl)c2c(c1)OCO2
→ 4.3%, -2%, 4, 19%
CN1CCN(NC(=O)/C=C/c2ccc(C(C)(C)C)cc2)CC1
→ ?, -22%, ., 17%
CC(=O)c1c(C)nn(CC(O)Cn2c3c(c4cc(C)ccc42)CCCC3=O)c1C (stereo not given)
→ -0.3%, -4%, -5, -13%
Nc1ccccc1C(=O)NCCN1CCNC1=O
→ 1.4%, -10%, 3, 2%
O=C(CCn1c(=O)[nH]c2ccccc2c1=O)Nc1ccccc1
→ 0.2%, -4%, -6, -2%
O=C(C[C@H]1C/C=C\CCCCC(=O)OC[C@H]2CCCN2C1=O)N[C@H](CO)Cc1ccccc1
→ -0.6%, ., ., 1%
COc1ccccc1NC(=O)N1CCN(c2cccc(C(F)(F)F)c2)CC1
→ -3.7%, -4%, -5, -3%
Cc1nc(SCC(=O)N2CCCc3ccccc32)c2oc3ccccc3c2n1
→ 0.6%, 3%, 3, 0%
COc1ccc(CCNC(=O)C(=O)NCc2ccc(C(C)C)cc2)cc1OC
→ -0.6%, 2%, -1, 2%
O=C(NCCN1CCOCC1)/C(=C\c1ccccc1Cl)NC(=O)c1ccccc1
→ 6.0%, -4%, ., ?
Cc1cc(C)c2c(N=NN3CCCCC3)[nH]nc2n1
→ 4.5%, -56%, -9, 17%
CC1CN(C(=S)SCC(=O)c2ccccc2)CC(C)O1 (stereo not given)
→ 3.5%, -33%, -6, 6%
CC1=CC(C)(C)Nc2ccc(OC(=O)C(Cc3ccccc3)N3C(=O)C4CCCCC4C3=O)cc21 (stereo not given)
→ -1.3%, 17%, 2, -20%
NS(=O)(=O)c1ccc(CCNC(=O)c2ccc(Cl)cc2[N+](=O)[O-])cc1
→ 1.9%, -2%, 3, -4%
N#Cc1cc(C(=O)c2ccccc2O)cn(-c2ccc(Cl)cc2)c1=O
→ ?, -4%, 7, ?
CCCc1nc2c(=O)n(C)c(=O)[nH]c2n1C
→ ?, 0%, 4, ?
Cc1ccc(C(=O)C(C)N2C(=O)NC(C)(c3ccccc3)C2=O)cc1 (stereo not given)
→ 2.8%, -1%, -6, 7%
Nc1nc(NCCOCCO)nc(NCC2CCCO2)c1[N+](=O)[O-] (stereo not given)
→ 7.2%, 5%, 1, 8%
COCCn1c(COc2cccc(OC)c2)nnc1SCC(=O)N1CCOCC1
→ -0.5%, -1%, -7, 1%
COc1ccc(/C=C/C(=O)Oc2cc(C)[nH]c(=O)c2[N+](=O)[O-])cc1OC
→ 6.3%, 1%, 0, -1%
O=C(NCCc1ccccc1)c1ccc2c(c1)OCCO2
→ 2.6%, ?, ., 10%
CC(=O)N(CCN(C(C)=O)c1ccccc1)c1ccccc1
→ -2.5%, 2%, -2, 1%
Clc1ccccc1-c1nnc2sc(-c3ccc(Br)o3)nn12
→ 0.6%, -7%, -7, 1%
COc1ccc(CNc2ncnc3c2[nH]c2ccccc23)cc1
→ 9.6%, ?, -1, 8%
O=C(Nc1cc(Cl)cc(Cl)c1)c1ccc(Cn2c(=O)[nH]c3ccsc3c2=O)cc1
→ 0.0%, -11%, 5, 11%
Cc1onc(-c2c(F)cccc2Cl)c1C(=O)Nc1ccccc1N1CCOCC1
→ 0.3%, -16%, 9, 4%
CC1CCCN(C(=O)COC(=O)c2cc([N+](=O)[O-])ccc2N2CCOCC2)C1 (stereo not given)
→ -3.3%, ., ., -5%
CC(c1ccccc1)c1nnc(N)s1 (stereo not given)
→ 4.2%, 1%, -12, 28%
COC(=O)CCC(=O)OC1(C)C(=O)C=C2C=C(C3CC3)N(c3ccccc3)C=C2C1=O (stereo not given)
→ ?, 4%, 9&-8, -35%
Cc1cc(C)cc(NC(=O)CCOc2ccccc2)c1
→ 2.6%, -10%, ., 11%
Cc1ccc(C(=O)N/C(=C/c2ccc(Cl)cc2)C(=O)NCC2CCCO2)cc1 (stereo not given)
→ 3.2%, -6%, 0, -4%
Cc1ccc(/C=C/C(=O)O)cc1S(=O)(=O)N1CCC(Cc2ccccc2)CC1
→ 1.1%, -3%, 1, 1%
CCOC(=O)c1c(C)[nH]c(C(=O)COC(=O)COc2ccccc2C)c1C
→ 0.8%, -10%, 6, 34%
O=C(Nc1ccccn1)c1ccc2ccccc2n1
→ -3.2%, -12%, -10, -6%
Cc1ccc(-c2nnn(CC(=O)Nc3ccccc3-c3ccccc3)n2)c(-n2cnnn2)c1
→ -0.2%, -5%, -13, -6%
N#Cc1cc(C(=O)c2ccccc2OCC(=O)Nc2ccccc2)cn(C2CCCCC2)c1=O
→ 1.2%, -10%, -4, -8%
O=C(Cn1cnc2c(cnn2-c2ccccc2)c1=O)NCCc1ccccc1
→ -0.6%, -3%, 9, -15%
C=CCNC(=O)c1cc2c(=O)n3cccc(C)c3nc2s1
→ 0.2%, -15%, ., -5%
O=C(COc1ccc([N+](=O)[O-])cc1)NN=C1CCCC1
→ -5.1%, -3%, -8, -14%
O=c1cc(-c2ccccc2)nc(N2CCCCC2)[nH]1
→ 1.3%, -2%, 6, 5%
CS(=O)(=O)N(CC(=O)Nc1cc(Cl)ccc1Cl)c1ccccc1Cl
→ -4.1%, -2%, -21, 6%
COc1cccc(C(=O)Nc2cccc(SC)c2)c1
→ 0.3%, -34%, 4, 0%
COc1cc(/C=C/C(=O)OCC(=O)N2c3ccccc3NC(=O)C2(C)C)cc(OC)c1OC
→ -1.2%, ., ., -7%
CCCCc1c(C)[nH]c(C(=O)OCC)c1C
→ -4.7%, -3%, 2, -18%
O=S(=O)(c1ccc(SCCOc2ccccc2)nc1)N1CCCC1
→ -3.3%, ., ., -10%
Cc1ccc(S(=O)(=O)NNC(=O)C2Cc3c(ccc4ccccc34)O2)cc1 (stereo not given)
→ -0.1%, 12%, -7, -15%

(list continues)
Every second line gives: Rango complex inh, miR-21 FLuc, GLA inh pH 4.5, Rango dissoc inh
COC(=O)c1ccc(NC(=O)CSc2nnc(-c3cccnc3)o2)cc1
→ -0.2%, ., ., 7%
CC(C)C(c1nnnn1C1CCCCC1)N1CCN(c2ncccn2)CC1 (stereo not given)
→ 1.8%, -3%, -5, 23%
O=C(O)c1cccc(Cn2c(Cl)c(/C=N/NC(=O)c3cccc(O)c3)sc2=O)c1
→ 0.0%, -1%, -5, -15%
COc1cccc(OCC(=O)Nc2ccccc2C(=O)Nc2ccc(C(=O)O)cc2)c1
→ -2.9%, -1%, ., 0%
CCC/C=C1/CCCOC(C(=O)NCc2ccccc2)(C(F)(F)F)C1 (stereo not given)
→ -0.5%, ., ., 3%
COCn1c(COc2ccc3ccccc3c2)nc2ccccc21
→ 0.0%, -67%, 0, 1%
Cc1cccc(-c2nc(CS(=O)CC(=O)NC3CCCC3)c(C)o2)c1 (stereo not given)
→ 2.7%, -1%, 0, 18%
Cc1cc(NC(=O)c2cccs2)cc(-c2nc3ncccc3o2)c1O
→ 0.2%, 0%, ., -6%
c1csc(-c2nc(-c3ccc(-c4ccon4)s3)no2)c1
→ -2.6%, -65%, -7, -7%
O=C(CN(Cc1ccccc1F)C(=O)Cn1nnc(-c2cccs2)n1)NCC1CCCO1 (stereo not given)
→ 0.1%, -10%, 7, 7%
O=S(=O)(NCC1(N2CCOCC2)CCCCC1)c1ccc(F)cc1
→ 0.0%, ., ., 5%
CCCCNC(=O)COC(=O)c1cc(C)oc1C
→ 2.1%, -1%, 2, 0%
CC1CCCCN1C(=O)CSc1nnc(-c2cccnc2)o1 (stereo not given)
→ 1.2%, -9%, ., -6%
C=CCOc1c(Br)cc(CNn2c(C)n[nH]c2=S)cc1OCC
→ 0.2%, -7%, ., -8%
CCN(CC)c1ccc(S(=O)(=O)N2CCOCC2)cc1NC(=O)COC(=O)c1cccnc1SC
→ 0.3%, ., ., 15%
CN1CCc2c(sc(NC(=O)c3cc(Cl)sc3Cl)c2C(N)=O)C1
→ ?, -19%, ., ?
COC(=O)C(C)C1Sc2ccccc2NC1=O (stereo not given)
→ -0.7%, -8%, 5, 0%
CCOC(=O)N1CCN(C(=O)c2oc3ccc(S(=O)(=O)N4CC(C)CC(C)C4)cc3c2C)CC1 (stereo not given)
→ -4.7%, -26%, ?, -4%
C=CS(=O)(=O)c1c2cc(OC)ccc2nc2ccc(OC)cc12
→ ?, ., ., ?
CCOc1ccc(N(C)S(=O)(=O)c2cc(-c3cc(C)no3)ccc2CC)cc1
→ 0.1%, ?, ., 2%
COc1cc(NC(=O)c2cc(-c3ccco3)on2)cc(OC)c1OC
→ -2.9%, 10%, ., 1%
Cn1c(=O)c2c(nc(SCCCC#N)n2Cc2ccccc2F)n(C)c1=O
→ 5.0%, -7%, 3, -1%
CCN1CCN(c2ccc(S(=O)(=O)N3CCOCC3)cc2NC(=O)c2ccccc2OC(F)F)CC1
→ 2.0%, ., ., -9%
Cn1nccc1C(=O)N1CCCC(C(=O)c2ccc(C(F)(F)F)cc2)C1 (stereo not given)
→ -1.0%, 0%, ., 0%
CCOC(=O)N1CCN(C(=S)NC2CCCC2)CC1
→ -1.2%, -3%, 0, -3%
CS(=O)(=O)N(CC(=O)N1CCOCC1)Cc1ccc(Cl)cc1
→ -0.3%, -2%, 4, 1%
O=C(NNCc1ccccc1)c1ccccn1
→ -1.1%, ., ., 8%
CCc1nc(N2CCN(C(=O)c3ccccc3)CC2)c(C#N)c2c1COC(C)(C)C2
→ ?, 17%, 9, -4%

Given in markdown: three of the compounds above
| SMILES | Rango complex inh | miR-21 FLuc | GLA inh pH 4.5 | Rango dissoc inh |
| --- | --- | --- | --- | --- |
| COc1ccccc1NC(=O)N1CCN(c2cccc(C(F)(F)F)c2)CC1 | -3.7% | -4% | -5 | -3% |
| Cc1nc(SCC(=O)N2CCCc3ccccc32)c2oc3ccccc3c2n1 | 0.6% | 3% | 3 | 0% |
| COc1ccc(CCNC(=O)C(=O)NCc2ccc(C(C)C)cc2)cc1OC | -0.6% | 2% | -1 | 2% |
